Screening data (PubChem BioAssay)
FGF22 binding: FGF22 (human) thermal shift binding; recombinant FGF22 thermal shift, SYPRO orange fluorescence; percent of sucrose octasulfate shift, DMSO zero; AID 651658; calls only at 9.99 µM; Q9HCT0; 340,000 tested, 1.5% active;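 active = melting point raised past a set limit in the mean and every replicate; inconclusive = no clear call; three in four hits are not shown here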
Target sequence (Q9HCT0 whole entry, looked up): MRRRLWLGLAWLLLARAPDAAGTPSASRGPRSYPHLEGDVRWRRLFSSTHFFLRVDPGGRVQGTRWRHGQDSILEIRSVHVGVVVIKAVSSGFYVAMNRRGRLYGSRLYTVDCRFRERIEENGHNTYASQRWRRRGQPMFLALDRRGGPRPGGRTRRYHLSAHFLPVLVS
HNF4A DNA FP: change in binding of human HNF4 alpha to DNA; P41235; HNF4a-FITC DNA binding, fluorescence polarization, 1 h; activity change, % at 10 µM; 360,000 tested, 0.3% active; AID 1224865; in the data active = activity change above about 30%, passing the limit was not always enough;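 also: controls were the assay level and a saturating level of protein; the project sought stronger binding though the title names inhibitors; some compounds called inactive have numbers as strong as hits; positive values seem to mean higher polarization but the record does not say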
Target sequence (P41235 whole entry, looked up): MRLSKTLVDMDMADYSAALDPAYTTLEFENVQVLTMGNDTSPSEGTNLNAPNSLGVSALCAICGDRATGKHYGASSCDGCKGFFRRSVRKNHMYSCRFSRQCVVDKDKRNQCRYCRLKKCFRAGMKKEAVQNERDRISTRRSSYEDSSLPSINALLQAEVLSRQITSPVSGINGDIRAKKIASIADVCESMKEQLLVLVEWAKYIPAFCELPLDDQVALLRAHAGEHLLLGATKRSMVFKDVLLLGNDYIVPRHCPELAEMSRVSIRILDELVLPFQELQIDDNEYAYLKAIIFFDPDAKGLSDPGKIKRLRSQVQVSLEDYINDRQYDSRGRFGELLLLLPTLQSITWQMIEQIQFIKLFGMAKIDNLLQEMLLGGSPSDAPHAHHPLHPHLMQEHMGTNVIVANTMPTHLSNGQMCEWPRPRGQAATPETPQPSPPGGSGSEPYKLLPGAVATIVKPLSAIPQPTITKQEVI
AF4-AF9 inh: blocks AF4 peptide binding to human AF9. P42568. AlphaScreen, biotin-AF4 peptide binding to FLAG-AF9. inhibition, % at 10 µM. 350,000 tested, 0.47% active. AID 651704;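 active = every replicate reaching a set inhibition limit, whatever the replicate mean, cut at about 25% in these data; inconclusive = mean inhibition reaches that limit but some replicates miss it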;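 also: 0% = plate neutral control median and 100% = total signal loss; the record names both 10 and 1 µM as test concentration; the first replicate is given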
Vif TR-FRET: inhibitors of Vif binding to APOBEC3G peptide, primary screen, biochemical, TR-FRET, GST-Vif 1-94, biotin-A3G peptide, dose response retest (AID 1117319); TR-FRET GST-Vif / biotin-A3G peptide binding; higher % means a stronger effect; test concentration not given here; strong numbers were not always called active; inhibition, %, or IC50 in µM where a hit was titrated; 260,000 tested, 0.57% active;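 active = above the screen mean plus three standard deviations and confirmed in dose response; inconclusive = results disagree or hit not tested in dose response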;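 also: Vif residues 1-94 fused to GST binding biotinylated APOBEC3G peptide 110-148; 0% = full assay without inhibitor and 100% = GST in place of GST-Vif; retest series ran down from 100 µM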
UCH37 inh: blocks the human deubiquitinase UCH37. Q9Y5K5. purified proteasome/UCH37, Ub-AMC cleavage fluorescence. inhibition, % (test concentration not listed). 330,000 tested, 0.33% active. AID 588478;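 active = mean of two replicates above 20%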;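 also: 0% = compound-free wells with enzyme and 100% = wells lacking proteasome; stock transfer was 100 nL into about 20 µL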
Target sequence (Q9Y5K5 whole entry, looked up): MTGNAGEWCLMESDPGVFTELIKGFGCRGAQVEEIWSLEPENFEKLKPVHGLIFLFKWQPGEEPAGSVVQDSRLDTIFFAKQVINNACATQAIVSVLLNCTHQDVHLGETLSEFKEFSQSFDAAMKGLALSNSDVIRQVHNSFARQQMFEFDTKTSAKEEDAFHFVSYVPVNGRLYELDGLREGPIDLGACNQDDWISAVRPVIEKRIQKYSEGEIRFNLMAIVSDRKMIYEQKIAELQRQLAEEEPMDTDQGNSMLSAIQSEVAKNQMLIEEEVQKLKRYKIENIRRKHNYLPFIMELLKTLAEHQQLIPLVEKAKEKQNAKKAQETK
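Test system – human UCH37 enzyme supplied as purified proteasome complex · Incubation – 30 min preincubation with enzyme, 25 min cleavage at room temperature · Detection – AMC fluorescence from Ub-AMC cleavage, excitation 355 nm, emission 460 nm · Benchmarks – no-proteasome wells (full inhibition) and compound-free wells (no inhibition)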
E coli growth: blocks Escherichia coli growth; OD600, 23 h; stronger effect = lower value; OD600 absorbance (concentration not given with the values); 330,000 tested, 0.21% active; AID 1053175;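 active = OD600 absorbance below the run mean of sample wells minus 3.6 SD, in any replicate, cut at about 0.56 in these data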;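 also: stock transfer was 300 nL into about 60 µL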
RanGTP-Impb inh: disruptors of Ran-importin-beta complex formation – biochemical, FRET, CFP-Ran, YFP-importin-beta, homogeneous, primary screen. 300,000 tested, 1.1% active. AID 2216. cell-free CFP-Ran/YFP-importin-beta FRET ratio. inhibition, % (test concentration not listed);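 active = most replicates above 15%; inconclusive = exactly half above 15%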;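 also: 0% = DMSO wells and 100% = Ran loaded with GDP instead of GTP; wells of about 40 µL received 100 nL stock; the first replicate is given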
An asterisk follows results filed as active; i = inactive; ? = inconclusive; / = no result given; & = joins results of further samples. Not all compounds are listed; rates above refer to the full screens.

molecule	UCH37 inh	HNF4A DNA FP	Vif TR-FRET	E coli growth	FGF22 binding	RanGTP-Impb inh	AF4-AF9 inh
COC(=O)c1ccccc1NC(=O)c1cc2ccccc2o1	-8.3	-0.7	/	0.73	i	-3.2	1.8
O=C(NCC(=O)N1CCN(c2cccc(Cl)c2)CC1)c1ccc(Br)o1	4.4	4.0	-2%	0.67	i	-0.6	-3.0
O=C(CN(C1CCCCC1)S(=O)(=O)c1ccccc1)N1CCCC1	-2.9	14	69%	0.75	/	6.9	/
Nn1c(Nc2ccccc2)nc2ccccc2c1=O	3.6	3.6	10%	0.66	/	-0.8	/
Cn1c(SC/C=C/c2ccccc2)nnc1-c1cnccn1	1.7	2.2	0%	/	/	0.4	/
O=C1CCN(c2ccc([N+](=O)[O-])cc2F)CC1	6.4	-1.9	0%	0.69	i	-0.1	0.8
CCOc1ccc(-n2c(-c3ccc(OC)cc3)c[n+]3c2CCCCC3)cc1	0.7	-4.5	7%	0.67	i	?	-0.7
CC1Cn2c(nc(=O)c3c2NCN(CCc2ccccc2)C3)S1 (stereo unspecified)	0.6	-1.6	/	0.68	i	4.0	-0.8
CCOC(=O)Nc1ccc2c(c1)N(CCCN(C)C)c1ccccc1CC2	0.2	-1.9	/	0.63	i	-1.4	22
Cc1csc(N2CCCC2c2nc3cc(C(F)(F)F)ccc3n2CCOCCO)n1 (stereo unspecified)	i	0.1	/	0.82	i	-2.0	0.1
COc1ccc(C(C(=O)NCc2ccc(F)cc2)N(C(=O)c2csnn2)C2CC2)cc1 (stereo unspecified)	1.9	3.2	-4%	0.64	i	-0.2	-1.6
CCN(CC)CC(C(=O)N(CC)CC)P(=O)(c1ccccc1)c1ccccc1 (stereo unspecified)	6.3	0.8	6%	0.72	/	2.4	/
CC(C)Cn1c(O)c2ccc(C(=O)N=NC(=O)c3cccnc3)cc2c1O	1.2	2.8	/	0.65	/	-0.4	/
Cc1cc(C)n2nc(SCc3nnc(-c4ccc(F)cc4)o3)nc2n1	2.1	/	-2%	0.71	/	-4.8	/
COc1ccc(-c2nc(SCC(=O)Nc3nccs3)c(-c3ccc(Cl)cc3)[nH]2)cc1	2.6	-1.2	22%	0.79	i	0.8	-1.3

Brought forward from above: two compounds, followed by the next part.
molecule	UCH37 inh	HNF4A DNA FP	Vif TR-FRET	E coli growth	FGF22 binding	RanGTP-Impb inh	AF4-AF9 inh
Cc1cc(C)n2nc(SCc3nnc(-c4ccc(F)cc4)o3)nc2n1	2.1	/	-2%	0.71	/	-4.8	/
COc1ccc(-c2nc(SCC(=O)Nc3nccs3)c(-c3ccc(Cl)cc3)[nH]2)cc1	2.6	-1.2	22%	0.79	i	0.8	-1.3
O=C(NNC(=O)c1c(O)c2ccccc2[nH]c1=O)c1ccccc1	/	-0.3	-1%	/	i	-2.6	12
O=C(/C=C/c1cccs1)N1CCC2(CC1)Oc1ccc(Cl)cc1C(=O)C21CC(c2ccccc2)=NO1 (stereo unspecified)	0.4	-4.2	4%	/	i	3.1	/
CCn1c(=N)n(CC(=O)c2ccc(OC)c(OC)c2)c2ccccc21	4.3	1.4	7%	0.73	i	-0.9	-9.4
COC(=O)c1sc(S(=O)(=O)NC(Cc2ccccc2)C(=O)O)c(C(=O)OC)c1C (stereo unspecified)	5.1	-2.1	2%	0.68	i	/	-1.9
COCC(C)NC(=O)c1ccc2nc(-c3ccccc3)c(-c3ccccc3)nc2c1 (stereo unspecified)	-242	0.2	/	0.65	i	-0.5	1.7
O=C(Cc1ccccc1)CC1(O)C(=O)Nc2ccccc21 (stereo unspecified)	3.8	1.0	5%	0.69	/	5.3	/
CCNC(=S)N1CCN(CC)CC1	-1.0	4.4	19%	0.71	i	-2.3	-0.2
Cc1cc(O)c(N=Cc2cc3c(cc2[N+](=O)[O-])OCO3)cc1C	6.4	2.3	/	0.63	i	-1.8	3.9
CSCCC(NC(=O)c1ccccc1Cl)C(=O)NCCc1ccccn1 (stereo unspecified)	0.5	0.9	/	0.66	i	/	-2.2
CO[C@@]1(NC(=O)C2SC(=C(C(N)=O)C(=O)O)S2)C(=O)N2C(C(=O)O)=C(CSc3nnnn3C)CS[C@@H]21 (stereo partly specified)	0.2	-3.7	/	/	i	/	-15
CCN1CCN(CC(=O)Nc2ccc3c(c2)OCCO3)C(=O)C1=O	5.5	3.2	-3%	0.76	i	1.6	0.5
COC(=O)C1(C(=O)OC)Cc2ccccc2N(S(=O)(=O)c2ccc(C)cc2)C1CC(C)=O (stereo unspecified)	/	6.2	/	/	i	/	-0.4
Cc1cc(C)n2nc(C(=O)NNC(=O)c3ccccc3)nc2n1	3.6	6.7	2%	0.7	/	2.5	0.8
O=C(COC(=O)CCC1CCCC1)Nc1ccc(F)cc1Cl	1.3	1.5	19%	0.64	i	/	-3.1
Cc1ccsc1CN(C)CC(=O)Nc1ccccc1C(=O)NC1CC1	4.1	-0.1	-10%	0.67	i	/	0.1
COc1cccc(-c2sc3ccc(OC)cc3c2-c2cc(F)cc(OC)c2)c1	-0.5	-4.0	/	/	i	/	-7.8
CC(=O)NC(Cc1ccc(F)cc1)C(=O)O (stereo unspecified)	-1.7	0.7	23%	0.69	/	-9.7	/
O=C(NCC(=O)N(c1cnc2ccccc2c1)C(C(=O)NC1CCCC1)c1ccncc1)c1ccco1 (stereo unspecified)	0.6	-1.9	28%	0.7	/	1.7	/
Cc1cccc(C)c1NC(=O)CN(C)C(=O)c1ccccc1C(=O)N(C)Cc1ccccc1	5.0	0.1	/	0.67	i	-0.1	1.5
COc1ccc(CN2[C@@H](CC(C)=O)c3ccc(/C=C/C(C)=O)cc3S2(=O)=O)cc1	5.6	7.8	/	/	i	0.4	/
NS(=O)(=O)c1ccc(CCNC(=O)Cc2ccc(S(=O)(=O)N3CCOCC3)s2)cc1	0.0	11	-4%	0.69	i	/	2.0
COc1ccc(-n2c(SCC(=O)Nc3ccccc3C)nc(O)c(Cc3ccccc3)c2=O)cc1	0.0	-1.2	1%	0.7	i	3.8	0.5
COc1ccc2cc3c(N)nn(C(=O)c4ccc(F)cc4)c3nc2c1	0.1	4.9	/	0.71	i	7.5	6.6
CC(C)=Nc1ccccc1C1COC(=O)C1=N (stereo unspecified)	-13	-0.1	-1%	0.67	i	-2.3	-5.2
COCC#Cc1ccc2c(c1)O[C@@H](CN(C)C(=O)Nc1ccc(OC)cc1)[C@H](C)CN([C@H](C)CO)S2(=O)=O	/	0.2	-2%	/	i	/	1.1&0.4&-0.1
O=C(NNC(=O)c1ccc(Cl)c([N+](=O)[O-])c1)c1ccncc1	3.1	0.8	/	0.65	i	6.9	-0.1
Oc1ccc(C[C@@H]2CNCCN2CCC23CC4CC(CC(C4)C2)C3)cc1	-0.6	0.8	/	/	i	-0.9	16
CC(C)C[C@H]1CNC(=S)N1C[C@H]1CCCN1C[C@H](Cc1ccc(O)cc1)N1C[C@H](Cc2ccccc2)N(CC2CCCCC2)C1=S	/	1.9	/	/	i	/	0.6
COc1ccc(F)c(C2C(C#N)=C(N)Oc3n[nH]c(C(C)(C)C)c32)c1 (stereo unspecified)	4.2	-1.6	21%	0.7	/	-2.5	/
O=C(CN1C(=O)COc2ccc(Cl)cc21)NC1CC1	2.1	3.3	/	0.68	i	-5.1	0.6
O=C(NC(=S)N1CCOCC1)c1cc2ccccc2o1	3.1	2.8	/	0.68	/	0.9	-2.2
COc1ccc(-c2ccc3c(c2)S(=O)(=O)c2cccc(C(=O)N4CCN(c5ccc(Cl)cn5)CC4)c2C3=O)cc1OC	1.9	2.8	/	0.68	i	/	-0.9
CCOC(=O)c1c(CC(C)C)csc1NC(=O)CCl	6.0	2.7	8%	0.69	/	3.1	/
O=C(O)CCC(=O)N1CCN(c2cccc(Cl)c2)CC1	-0.3	-0.9	3%	0.7	/	0.5	/
COc1ccc(CN2CCCC(C(=O)N3CCCC3)C2)c(OC)c1OC (stereo unspecified)	/	-0.5	/	/	i	/	-5.2
CCOC(=O)c1cc(CC)sc1NC(=O)COC(=O)c1ccccn1	3.6	4.8	-14%	0.69	i	-3.7	-18
CCc1cc2c(-c3ccccc3)cc(=O)oc2cc1OCC(C)=O	-22	-1.2	-9%	0.64	i	-2.1	-5.7
Cc1ccc(P(=O)(CC(=O)O)c2ccc(C)cc2)cc1	2.0	-3.5	3%	0.73	/	?	/
O=C(C1CCCN(S(=O)(=O)c2ccc(F)cc2)C1)N1CCCC1 (stereo unspecified)	2.2	0.1	-2%	0.68	/	-0.7	/
O=C(NCc1ccncc1)c1ccc(NS(=O)(=O)c2ccc(F)cc2)cc1	1.5	1.7	-5%	0.67	i	/	2.2
CC(C)C(=O)NCc1cc(-c2ccc(Cl)cc2)no1	0.3	1.5	/	0.68	i	3.1	-3.9
Cc1ccc(CN2CCN(Cc3c[nH]c4ccccc34)CC2CCO)o1 (stereo unspecified)	5.7	-0.1	25%	0.65	i	1.7	3.2
CCOC(=O)c1sc2nc(C)nc(NC3CCC(O)CC3)c2c1C (stereo unspecified)	-120	-0.8	/	0.7	i	-1.9	-22
CCOc1ccc(NC(=O)c2c(NC(=O)CN3CCN(C)CC3)sc3c2CCC3)cc1	/	2.0	/	/	i	4.4	8.8
C=Cn1cc[n+](CC(=O)C(C)(C)C)c1	2.1	1.5	-4%	0.69	/	1.4	/
CSc1ccccc1C(=O)OCC(=O)N1CCN(C(C)=O)CC1	1.4	-0.7	-4%	0.68	i	/	-0.4
COc1cccc(CNC(=O)C23CN(Cc4ccccc4)CC2C(c2ccc([N+](=O)[O-])cc2)=NO3)c1 (stereo unspecified)	2.3	-5.4	?	0.77	i	3.5	6.2
COc1ccccc1CNS(=O)(=O)c1ccc2c(c1)oc(=O)n2C	5.6	-5.9	0%	0.78	i	4.5	12
O=C(c1ccc2ccccc2c1)N1CCN(c2ccccn2)CC1	1.1	-1.0	/	0.62	i	-1.9	-2.2
COC(=O)CSc1nnc(-c2cccnc2)n1-c1cccc(OC)c1	-0.4	-1.4	10%	0.71	i	3.0	-52
COc1ccc(Cl)cc1NC(=O)c1ccoc1C	-1.6	1.3	1%	0.72	/	2.2	/
O=C(OCC(=O)N1CCN(c2ccccc2)CC1)c1ccccn1	1.1	-1.7	?	0.67	/	0.7	/
